# Source: PubChem BioAssay (Broad Institute)
# FGF22 binding = binders of recombinant human FGF22 by thermal shift; SYPRO orange fluorescence; percent of sucrose octasulfate shift, DMSO zero; calls only at 9.99 µM; actives 1.5% (n = 340,000); AID 651658;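 active means melting point raised past a set limit in the mean and every replicate; three in four hits are not shown here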
# Target sequence (Q9HCT0 whole entry, looked up): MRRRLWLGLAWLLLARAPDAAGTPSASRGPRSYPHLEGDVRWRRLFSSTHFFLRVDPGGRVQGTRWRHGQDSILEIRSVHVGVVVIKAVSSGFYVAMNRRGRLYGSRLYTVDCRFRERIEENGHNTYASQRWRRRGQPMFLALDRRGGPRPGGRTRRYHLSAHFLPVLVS
# Calls only; i = inactive. This is a subset (hit frequency here may not be typical).
SMILES,FGF22 binding
C[C@@H]1CCCCO[C@@H](CN(C)C(=O)Nc2ccc(C(F)(F)F)cc2)[C@H](C)CN([C@H](C)CO)C(=O)c2cc(NC(=O)C3CCCCC3)ccc2O1,i
C[C@H](CO)N1C[C@H](C)[C@H](CN(C)S(=O)(=O)c2cn(C)cn2)Oc2ccc(NC(=O)NC3CCCCC3)cc2C1=O,i
COc1ccc(NC(=O)N(C)C[C@@H]2OCCCC[C@H](C)Oc3ccc(NC(=O)c4ccncc4)cc3C(=O)N([C@H](C)CO)C[C@@H]2C)cc1,i
O=C(C[C@@H]1CC[C@@H](NC(=O)Nc2cc(F)ccc2F)[C@H](CO)O1)NCc1ccc2c(c1)OCO2,i
CCCNC(=O)C[C@@H]1CC[C@@H]2[C@H](COC[C@H](O)CN2Cc2ccncc2)O1,i
COC(=O)C[C@H]1CC[C@H]2[C@@H](COC[C@@H](O)CN2C(=O)Nc2cccc(F)c2)O1,i
CCCNC(=O)Nc1ccc2c(c1)C(=O)N(C)[C@H]1CC[C@H](CC(=O)Nc3ccccc3C)O[C@@H]1CO2,i
COCC(=O)N1CCC2(CC1)CN(S(C)(=O)=O)[C@H](CO)c1c2c2ccc(OC)cc2n1C,i
O=C(C[C@H]1CC[C@@H]2NC[C@@H](O)COC[C@H]2O1)NCCN1CCCCC1,i
N#Cc1ccc(-c2ccc([C@@H]3[C@H]4CN(C(=O)C5CCCCC5)CC(=O)N4[C@H]3CO)cc2)cc1,i
Cn1cnc(S(=O)(=O)N2C[C@@H](O)COC[C@H]3O[C@H](CC(=O)NCc4ccc(F)cc4)CC[C@@H]32)c1,i
C[C@@H]1CN([C@@H](C)CO)C(=O)c2cc(NC(=O)C3CC3)ccc2O[C@@H]1CN(C)C(=O)Nc1cccc2ccccc12,i
CC(C)C#Cc1ccc2c(c1)O[C@@H](CN(C)C(=O)Cc1ccccn1)[C@@H](C)CN([C@H](C)CO)S2(=O)=O,i
O=C(C[C@H]1C[C@@H]2c3cc(NC(=O)c4ccc5c(c4)OCO5)ccc3O[C@@H]2[C@@H](CO)O1)NCc1ccc(Oc2ccccc2)cc1,i
O=C(C[C@@H]1CC[C@H](NS(=O)(=O)c2ccccc2)[C@@H](CO)O1)NCc1ccccc1F,i
O=C(C1CCCCC1)N1CC2(C1)[C@@H](c1ccccc1)[C@@H](CO)N2Cc1ccccc1F,i
C[C@@H]1CCCCO[C@H](CN(C)C(=O)Nc2cccc3ccccc23)[C@H](C)CN([C@@H](C)CO)C(=O)c2cc(N(C)C)ccc2O1,i
COc1ccc(NC(=O)Nc2ccc3c(c2)[C@@H]2C[C@H](CC(=O)NCc4ccc5c(c4)OCO5)O[C@H](CO)[C@@H]2O3)cc1,i
COCC(=O)Nc1ccc2c(c1)OC[C@H](C)N(C(=O)NC(C)C)C[C@@H](C)[C@H](OC)CN(C)C2=O,i
CC(C)NC(=O)N(C)C[C@@H]1Oc2ccc(NC(=O)C3CC3)cc2C(=O)N([C@@H](C)CO)C[C@H]1C,i
CN(C)C(=O)C[C@@H]1CC[C@H](NC(=O)c2ccc(F)cc2)[C@H](CO)O1,i
C[C@@H]1CN([C@H](C)CO)C(=O)c2cc(NC(=O)c3ccccc3)ccc2O[C@@H](C)CCCCO[C@@H]1CN(C)S(=O)(=O)c1cn(C)cn1,i
CCNC(=O)C[C@H]1CC[C@H]2[C@@H](COC[C@@H](O)CN2Cc2ccccc2F)O1,i
CNC(=O)C[C@@H]1CC[C@H]2[C@@H](COc3ccc(NC(=O)Cc4cccs4)cc3C(=O)N2C)O1,i

# Looked up by structure from the entries so far:
SMILES,FGF22 binding
CC(C)C#Cc1ccc2c(c1)O[C@@H](CN(C)C(=O)Cc1ccccn1)[C@@H](C)CN([C@H](C)CO)S2(=O)=O,i
COc1ccc(NC(=O)Nc2ccc3c(c2)[C@@H]2C[C@H](CC(=O)NCc4ccc5c(c4)OCO5)O[C@H](CO)[C@@H]2O3)cc1,i
O=C(C[C@@H]1CC[C@H](NS(=O)(=O)c2ccccc2)[C@@H](CO)O1)NCc1ccccc1F,i
CN(C)C(=O)C[C@@H]1CC[C@H](NC(=O)c2ccc(F)cc2)[C@H](CO)O1,i
CNC(=O)C[C@@H]1CC[C@H]2[C@@H](COc3ccc(NC(=O)Cc4cccs4)cc3C(=O)N2C)O1,i
C[C@@H]1CN([C@H](C)CO)C(=O)c2cc(NC(=O)c3ccccc3)ccc2O[C@@H](C)CCCCO[C@@H]1CN(C)S(=O)(=O)c1cn(C)cn1,i

# (continued)
SMILES,FGF22 binding
C/C=C/c1ccc([C@@H]2[C@@H](CN(C)C(=O)CC)N(C(=O)C3CC3)[C@H]2CO)cc1,i
CNC[C@@H]1Oc2cc(-c3cccnc3)ccc2S(=O)(=O)N([C@H](C)CO)C[C@H]1C,i
Cc1noc(C)c1S(=O)(=O)Nc1ccc2c(c1)C(=O)N([C@H](C)CO)C[C@@H](C)[C@@H](CN(C)CC1CCCCC1)O2,i
C[C@H]1CN([C@@H](C)CO)C(=O)c2cc(C#CCc3ccccc3)cnc2O[C@@H]1CN(C)Cc1ccc(C(=O)O)cc1,i
COc1ccc(S(=O)(=O)Nc2ccc3c(c2)C(=O)N([C@@H](C)CO)C[C@H](C)[C@H](CN(C)C(=O)Nc2c(C)noc2C)OCCCC[C@@H](C)O3)cc1,i
Cc1noc(C)c1S(=O)(=O)Nc1ccc2c(c1)C(=O)N([C@H](C)CO)C[C@@H](C)[C@H](CN(C)C(=O)Nc1ccc(C(F)(F)F)cc1)OCCCC[C@@H](C)O2,i
O=C(Cc1ccncc1)Nc1ccc2c(c1)[C@@H]1C[C@@H](CC(=O)NC3CCCCC3)O[C@H](CO)[C@@H]1O2,i
COc1ccc(S(=O)(=O)Nc2ccc3c(c2)C(=O)N([C@@H](C)CO)C[C@@H](C)[C@H](CN(C)Cc2ccc(C(F)(F)F)cc2)OCCCC[C@H](C)O3)cc1,i
C[C@@H]1CN([C@H](C)CO)C(=O)c2cc(NC(=O)CCCN(C)C)ccc2O[C@@H](C)CCCCO[C@@H]1CN(C)C(=O)c1ccccc1,i
O=C(C[C@H]1CC[C@H]2[C@@H](COC[C@H](O)CN2C(=O)Nc2ccc(C(F)(F)F)cc2)O1)NCC1CCCCC1,i
C[C@@H]1CCCCO[C@@H](CN(C)Cc2ccc(C(=O)O)cc2)[C@@H](C)CN([C@H](C)CO)C(=O)c2cc(NS(=O)(=O)c3cccs3)ccc2O1,i
C[C@H](CO)N1C[C@H](C)[C@@H](CN(C)C(=O)c2ccccn2)Oc2cc(C#Cc3ccc(F)cc3)ccc2S1(=O)=O,i
CCN1[C@@H]2c3ccc(-c4ccccc4)c(=O)n3C[C@@H]2[C@@H](CO)[C@@H]1C(=O)NCC(F)(F)F,i
C[C@H](CO)N1C[C@H](C)[C@H](CN(C)C(=O)Nc2ccccc2)Oc2ccc(NC(=O)Cn3cnnn3)cc2C1=O,i
CN(C)CCCNC(=O)C[C@@H]1CC[C@@H](NC(=O)Cc2cccnc2)[C@H](CO)O1,i
CCNC(=O)C[C@H]1CC[C@H]2[C@H](COc3ccc(NC(=O)c4ccc(C(F)(F)F)cc4)cc3C(=O)N2C)O1,i
O=C(NCC[C@H]1CC[C@@H](NS(=O)(=O)c2ccc(F)cc2)[C@@H](CO)O1)Nc1ccc(F)cc1,i
CNC[C@@H]1Oc2ccc(NS(C)(=O)=O)cc2CC(=O)N([C@H](C)CO)C[C@@H]1C,i
CC(=O)N(C)C[C@H]1Oc2ncc(-c3ccc(C(=O)N(C)C)cc3)cc2C(=O)N([C@@H](C)CO)C[C@H]1C,i
O=C(C[C@H]1C[C@@H]2c3cc(NC(=O)c4cccnc4)ccc3O[C@@H]2[C@@H](CO)O1)NCc1ccc(Oc2ccccc2)cc1,i
Cc1ccc(S(=O)(=O)N(C)C[C@@H]2Oc3ccc(NC(=O)Nc4c(C)noc4C)cc3CC(=O)N([C@H](C)CO)C[C@@H]2C)cc1,i
O=C(Nc1ccc(F)cc1)N[C@H]1CC[C@@H](CC(=O)N2CCCCC2)O[C@H]1CO,i
CO[C@@H]1CN(C)C(=O)c2ccc(NC(=O)c3ccccc3F)cc2OC[C@@H](C)N(C(=O)c2ccccc2F)C[C@H]1C,i
C[C@@H]1CN([C@H](C)CO)S(=O)(=O)c2ccc(C#Cc3ccc(F)cc3)cc2O[C@@H]1CN(C)C(=O)CN(C)C,i

# A different layout for 4 compounds above.
O=C(C[C@H]1C[C@@H]2c3cc(NC(=O)c4ccc5c(c4)OCO5)ccc3O[C@@H]2[C@@H](CO)O1)NCc1ccc(Oc2ccccc2)cc1
  FGF22 binding = i
O=C(C[C@@H]1CC[C@H](NS(=O)(=O)c2ccccc2)[C@@H](CO)O1)NCc1ccccc1F
  FGF22 binding = i
O=C(C1CCCCC1)N1CC2(C1)[C@@H](c1ccccc1)[C@@H](CO)N2Cc1ccccc1F
  FGF22 binding = i
C[C@@H]1CCCCO[C@H](CN(C)C(=O)Nc2cccc3ccccc23)[C@H](C)CN([C@@H](C)CO)C(=O)c2cc(N(C)C)ccc2O1
  FGF22 binding = i

# Following part
SMILES,FGF22 binding
C[C@H](O)C#Cc1ccc2c(c1)O[C@@H](CN(C)C(=O)CN(C)C)[C@@H](C)CN([C@@H](C)CO)S2(=O)=O,i
CCCNC(=O)N1[C@H](CO)[C@H](c2ccc(-c3cccc(OC)c3)cc2)[C@@H]1C#N,i
COCC#Cc1ccc([C@@H]2[C@@H](CO)N3C(=O)CN(C(=O)C4CCCCC4)C[C@H]23)cc1,i
O=C(Nc1ccccc1)Nc1ccc2c(c1)[C@H]1C[C@H](CC(=O)N3CCCCC3)O[C@H](CO)[C@H]1O2,i
C[C@H](CO)N1C[C@H](C)[C@@H](CN(C)S(=O)(=O)c2ccc(F)cc2)Oc2ccc(NC(=O)C3CC3)cc2CC1=O,i
O=C([C@H]1[C@H](CO)[C@H]2Cn3c(cccc3=O)[C@@H]1N2C(=O)c1ccccn1)N1CCCCC1,i
COc1ccc(S(=O)(=O)Nc2ccc3c(c2)C(=O)N([C@@H](C)CO)C[C@H](C)[C@H](CN(C)C(=O)C2CCCCC2)OCCCC[C@@H](C)O3)cc1,i
Cc1ccc(S(=O)(=O)N(C)C[C@@H]2Oc3ccc(NC(=O)Cc4cn(C)c5ccccc45)cc3CC(=O)N([C@@H](C)CO)C[C@@H]2C)cc1,i
COc1ccc2c3c([nH]c2c1)[C@@H](CO)N(Cc1ccncc1)CC31CCN(C(=O)CN(C)C)CC1,i
C[C@H]1CCCCO[C@@H](CN(C)Cc2ccc(C(F)(F)F)cc2)[C@@H](C)CN([C@@H](C)CO)C(=O)c2cc(NC(=O)Nc3cccc4ccccc34)ccc2O1,i
COc1ccc(NC(=O)N(C)C[C@H]2OCCCC[C@H](C)Oc3ccc(NC(=O)NC4CCCCC4)cc3C(=O)N([C@H](C)CO)C[C@@H]2C)cc1,i
CCC(=O)N1CCCCN2[C@H](CO)[C@H](c3ccc(-c4cccc(C#N)c4)cc3)[C@@H]2C1,i
CO[C@@H]1CN(C)C(=O)c2cc(NS(=O)(=O)c3cccc(Cl)c3)ccc2OC[C@@H](C)NC[C@H]1C,i
C[C@H]1CN([C@@H](C)CO)S(=O)(=O)c2ccc(C#CCN(C)C)cc2O[C@H]1CN(C)C(=O)c1ccccc1F,i
CC(C)NC(=O)N(C)C[C@@H]1OCCCC[C@@H](C)Oc2ccc(NC(=O)CCC(F)(F)F)cc2C(=O)N([C@@H](C)CO)C[C@H]1C,i
C[C@@H]1CCCCO[C@H](CN(C)C(=O)Nc2ccc(F)cc2)[C@H](C)CN([C@@H](C)CO)C(=O)c2cc(NC(=O)NC3CCCCC3)ccc2O1,i
CCCNC(=O)[C@@]1(c2ccc([N+](=O)[O-])cc2)CC(=O)N(CC23CC4CC(CC(C4)C2)C3)[C@@H]1c1ccc(CO)cc1I,i
CC(C)NC(=O)Nc1cccc2c1O[C@@H](CN(C)S(=O)(=O)c1ccccc1)[C@@H](C)CN([C@@H](C)CO)C2=O,i
CCCNC(=O)N1C[C@@H](C)[C@@H](OC)CN(C)C(=O)c2cc(NC(C)=O)ccc2OC[C@H]1C,i
O=C(C[C@H]1C[C@H]2c3cc(NC(=O)NC4CCCC4)ccc3O[C@H]2[C@H](CO)O1)NCc1ccc2c(c1)OCO2,i
O=C(C[C@H]1CC[C@H](NC(=O)c2ccccc2)[C@@H](CO)O1)Nc1ccc(-c2ccccc2)cc1,i
COc1ccc(NC(=O)N(C)C[C@@H]2Oc3ccc(NC(=O)Nc4ccc(F)cc4)cc3CC(=O)N([C@H](C)CO)C[C@@H]2C)cc1,i
O=C(NCC[C@@H]1CC[C@@H](NC(=O)Nc2cc(F)ccc2F)[C@@H](CO)O1)Nc1ccc(Cl)cc1,i
C[C@@H](NC(=O)C[C@@H]1CC[C@H](NC(=O)c2cccnc2)[C@@H](CO)O1)c1ccccc1,i
CCC(=O)Nc1ccc2c(c1)OC[C@@H](C)N(Cc1cccc(F)c1)C[C@H](C)[C@@H](OC)CN(C)C2=O,i
C[C@@H]1CN([C@@H](C)CO)C(=O)Cc2cc(NC(=O)CCN3CCOCC3)ccc2O[C@H]1CN(C)C(=O)Nc1ccc2c(c1)OCO2,i
Cc1ccc(S(=O)(=O)Nc2ccc3c(c2)C(=O)N([C@H](C)CO)C[C@@H](C)[C@@H](CN(C)Cc2ccccc2)OCCCC[C@H](C)O3)cc1,i
C[C@@H](O)C#Cc1ccc([C@H]2[C@H](CO)N3CCCCN(S(=O)(=O)Cc4ccccc4)C[C@@H]23)cc1,i
C[C@H](CO)N1C[C@H](C)[C@H](CN(C)C)Oc2ncc(-c3cccc(C#N)c3)cc2C1=O,i
CO[C@@H]1CN(C)C(=O)c2ccc(NC(=O)c3ccccc3)cc2OC[C@@H](C)N(C(C)=O)C[C@@H]1C,i
COc1ccc(-c2cnc3c(c2)C(=O)N([C@H](C)CO)C[C@H](C)[C@@H](CN(C)C(=O)Cc2ccccc2)O3)cc1,i
COc1ccc2c3c([nH]c2c1)[C@H](CO)N(Cc1nccs1)CC31CCN(C(=O)C2CCC2)CC1,i
C[C@@H]1CN([C@H](C)CO)C(=O)Cc2cc(NC(=O)C3CC3)ccc2O[C@H]1CN(C)Cc1ccc(Oc2ccccc2)cc1,i
COc1ccccc1-c1cnc2c(c1)C(=O)N([C@H](C)CO)C[C@@H](C)[C@H](CN(C)Cc1cccnc1)O2,i
